# Yeast UUG start: modulators of yeast start codon fidelity, primary screen, whole organism, S. cerevisiae, single point, plate reader | AID 602363, 2012 | actives 0.13% (n = 350,000) | activity score, % at 18.7 µM | S. cerevisiae UUG-firefly luciferase reporter, luminescence/redox ratio;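 active means replicate mean at a twofold rise or more, about +100% in these data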;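 further: firefly luciferase made from a UUG start codon reports start codon fidelity; reporter light over untreated wells divided by growth signal over untreated wells; some hits fall short of that in this replicate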
# HIV Env fusion: inhibitors of HIV-1 Env-driven cell-cell fusion, primary screen, HeLa-JRFL effector, CEM21 target cells, luciferase | actives 1.1% (n = 360,000) | inhibition, % at 12.3 µM | AID 651610, 2012;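 active means mean replicate inhibition score of at least 50 and every replicate individually at or above 50; inconclusive means only one of the two criteria met; inactive means mean below 50 and not all replicates reaching 50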;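 further: 0% = plate neutral controls and 100% = maraviroc near 300 nM; one replicate is shown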
# The depositor's hits bear a star; ? = inconclusive; & = joins results of further samples; [ ] = dose if it differs, or a comment. These rows are one share of the data; count on the stated rates, not on these rows.
SMILES,Yeast UUG start,HIV Env fusion
CC(C)NC(=O)N(C)C[C@@H]1Oc2c(NC(=O)C3CCOCC3)cccc2C(=O)N([C@H](C)CO)C[C@@H]1C,20,11[16.7 µM]
C[C@H]1CCCCO[C@H](CN(C)Cc2ccccc2)[C@@H](C)CN([C@@H](C)CO)C(=O)c2cc(NC(=O)Nc3ccc(C(F)(F)F)cc3)ccc2O1,14,32[16.7 µM]
Cc1ccc(-c2ccc3c(c2)O[C@H](CN(C)Cc2cccnc2)[C@H](C)CN([C@H](C)CO)S3(=O)=O)cc1,-1,10[16.7 µM]
C[C@@H]1CN([C@@H](C)CO)S(=O)(=O)c2ccc(C#CC3CC3)cc2O[C@H]1CN(C)C(=O)C1CCCCC1,-2,36[16.7 µM]
CO[C@H]1CN(C)C(=O)c2ccc(NC(=O)c3cc(C)on3)cc2OC[C@@H](C)N(C(C)=O)C[C@H]1C,-4,-2[16.7 µM]
CCCNC(=O)N(C)C[C@@H]1Oc2ncc(-c3ccc(OC)cc3)cc2C(=O)N([C@H](C)CO)C[C@H]1C,0,19[16.7 µM]
Cc1ccc(S(=O)(=O)NCC[C@@H]2CC[C@H](NC(=O)c3cccc(F)c3)[C@@H](CO)O2)cc1,6,2[16.7 µM]
COc1ccc(NC(=O)Nc2cccc3c2O[C@@H](CN(C)S(=O)(=O)c2cccs2)[C@@H](C)CN([C@@H](C)CO)C3=O)cc1,0,-1[16.7 µM]
O=C(C[C@H]1C=C[C@H](NC(=O)NC2CCCCC2)[C@H](CO)O1)NCc1ccc(F)cc1,-3,-14[16.7 µM]
CC(C)NC(=O)N(C)C[C@@H]1Oc2ccc(NC(=O)Nc3cccc4ccccc34)cc2CC(=O)N([C@@H](C)CO)C[C@H]1C,11,-3[16.7 µM]
COc1ccc(S(=O)(=O)N(C)C[C@H]2OCCCC[C@H](C)Oc3ccc(NC(=O)c4ccncc4)cc3C(=O)N([C@@H](C)CO)C[C@@H]2C)cc1,17,-45[16.7 µM]
C[C@H]1CN([C@@H](C)CO)C(=O)c2cccc(N(C)C)c2O[C@@H]1CN(C)C(=O)Nc1cccc2ccccc12,8,20[16.7 µM]
C[C@@H]1CCCCO[C@@H](CN(C)S(=O)(=O)c2cn(C)cn2)[C@@H](C)CN([C@H](C)CO)C(=O)c2cc(NC(=O)C3CCCCC3)ccc2O1,-5,6[16.7 µM]
N#C[C@H]1[C@H](c2ccc(C#CC3CC3)cc2)[C@@H](CO)N1S(=O)(=O)c1ccccc1,-6,1[16.7 µM]
C[C@H]1CCCCO[C@@H](CN(C)S(=O)(=O)c2ccccc2)[C@@H](C)CN([C@@H](C)CO)C(=O)c2cc(NC(=O)NC3CCCCC3)ccc2O1,19,20[16.7 µM]
C[C@@H]1CN([C@H](C)CO)C(=O)Cc2cc(NC(=O)Cn3cnnn3)ccc2O[C@H]1CN(C)S(=O)(=O)c1ccc(Cl)cc1,-4,-32[16.7 µM]
C[C@H](CO)N1C[C@H](C)[C@@H](CN(C)C(=O)c2ccccc2)OCCCC[C@H](C)Oc2ccc(NC(=O)Nc3ccc4c(c3)OCO4)cc2C1=O,0,-12[16.7 µM]
Cc1noc(C)c1S(=O)(=O)N(C)C[C@@H]1OCCCC[C@H](C)Oc2ccc(NS(=O)(=O)c3cn(C)cn3)cc2C(=O)N([C@H](C)CO)C[C@@H]1C,7,-20[16.7 µM]
C[C@H]1CN([C@@H](C)CO)C(=O)Cc2cc(NC(=O)NC3CCCCC3)ccc2O[C@@H]1CN(C)C(=O)NC1CCCCC1,3,-7[16.7 µM]
Cc1cc(C(=O)Nc2cccc3c2O[C@H](CN(C)C)[C@@H](C)CN([C@@H](C)CO)C3=O)n(C)n1,0,4[16.7 µM]
C[C@H]1CN([C@@H](C)CO)C(=O)c2cc(C#CC3CC3)cnc2O[C@@H]1CN(C)S(C)(=O)=O,13,7[16.7 µM]
COc1cccc(NC(=O)C[C@@H]2CC[C@H]3[C@H](COc4ccc(NC(=O)C5CC5)cc4C(=O)N3C)O2)c1,6,6[16.7 µM]
Cc1noc(C)c1NC(=O)Nc1ccc2c(c1)CC(=O)N([C@@H](C)CO)C[C@@H](C)[C@H](CN(C)Cc1ccc(C(F)(F)F)cc1)O2,8,24[16.7 µM]
CCCNC(=O)Nc1ccc2c(c1)C(=O)N(C)[C@@H]1CC[C@H](CC(=O)NCC3CCCCC3)O[C@@H]1CO2,10,-7[16.7 µM]
C/C=C/c1ccc2c(c1)O[C@H](CN(C)Cc1ccccn1)[C@H](C)CN([C@@H](C)CO)S2(=O)=O,-9,17[16.7 µM]

# Next section; it opens with the 2 that closed the last part.
SMILES,Yeast UUG start,HIV Env fusion
CCCNC(=O)Nc1ccc2c(c1)C(=O)N(C)[C@@H]1CC[C@H](CC(=O)NCC3CCCCC3)O[C@@H]1CO2,10,-7[16.7 µM]
C/C=C/c1ccc2c(c1)O[C@H](CN(C)Cc1ccccn1)[C@H](C)CN([C@@H](C)CO)S2(=O)=O,-9,17[16.7 µM]
Cn1cnc(S(=O)(=O)N[C@H]2CC[C@H](CC(=O)NCC3CC3)O[C@@H]2CO)c1,-13,23[16.7 µM]
C[C@@H]1CCCCO[C@@H](CN(C)C)[C@@H](C)CN([C@@H](C)CO)C(=O)c2cc(N(C)C)ccc2O1,2,-1[16.7 µM]
C[C@H](CO)N1C[C@H](C)[C@H](CN(C)S(=O)(=O)c2cccs2)Oc2ncc(-c3cccc(F)c3)cc2C1=O,10,8[16.7 µM]
C[C@H](CO)N1C[C@H](C)[C@@H](CN(C)C(=O)Cc2ccncc2)Oc2ncc(C#Cc3ccccc3F)cc2C1=O,11,33[16.7 µM]
C[C@@H]1CN([C@@H](C)CO)C(=O)c2cc(NC(=O)Cc3ccccc3)ccc2O[C@@H]1CN(C)Cc1ccncc1,21,-4[16.7 µM]
COC(=O)C[C@H]1C[C@H]2c3cc(NS(=O)(=O)c4ccc(F)cc4)ccc3O[C@H]2[C@H](CO)O1,2,-5[16.7 µM]
C[C@@H]1CCCCO[C@@H](CN(C)S(=O)(=O)c2cn(C)cn2)[C@@H](C)CN([C@@H](C)CO)C(=O)c2cc(N(C)C)ccc2O1,26,-8[16.7 µM]
C[C@H](CO)N1C[C@H](C)[C@H](CN(C)S(=O)(=O)c2ccccc2F)Oc2ncc(/C=C/c3ccccc3)cc2C1=O,-3&-2,71*[16.7 µM]
CC(C)CC#Cc1ccc2c(c1)O[C@@H](CN(C)C(=O)C1CCOCC1)[C@@H](C)CN([C@@H](C)CO)S2(=O)=O,8,-22[16.7 µM]
C[C@@H]1CN([C@H](C)CO)S(=O)(=O)c2ccc(C#CC3CC3)cc2O[C@H]1CN(C)Cc1cccnc1,5,9[16.7 µM]
C[C@H]1CN([C@@H](C)CO)C(=O)c2cc(NS(=O)(=O)c3ccccc3)ccc2O[C@@H]1CN(C)Cc1ccc(-c2ccccc2)cc1,0,-3[16.7 µM]
COC(=O)C[C@@H]1CC[C@@H]2[C@@H](COc3ccc(NC(=O)Nc4ccc(C#N)cc4)cc3C(=O)N2C)O1,-28,29[16.7 µM]
C[C@H]1CN([C@@H](C)CO)C(=O)Cc2cc(NS(=O)(=O)c3ccc(Cl)cc3)ccc2O[C@H]1CN(C)Cc1ccc2c(c1)OCO2,6,7[16.7 µM]
C[C@@H]1CN([C@H](C)CO)S(=O)(=O)c2ccc(C#Cc3cccnc3)cc2O[C@H]1CN(C)CC1CCCC1,5,25[16.7 µM]
CCNC(=O)C[C@@H]1CC[C@@H]2[C@@H](COc3ccc(NC(=O)c4ccccc4Cl)cc3C(=O)N2C)O1,31,3[16.7 µM]
Cc1noc(C)c1NC(=O)Nc1ccc2c(c1)C(=O)N([C@H](C)CO)C[C@@H](C)[C@H](CN(C)C(=O)Nc1ccc3c(c1)OCO3)O2,-11,-14[16.7 µM]
COc1cccc(S(=O)(=O)N[C@@H]2C=C[C@@H](CC(=O)NCc3ccccc3)O[C@H]2CO)c1,-3,0[16.7 µM]
Cn1cnc(S(=O)(=O)N[C@H]2CC[C@@H](CC(=O)Nc3ccc(-c4ccccc4)cc3)O[C@H]2CO)c1,-15,-13[16.7 µM]
COc1ccc(NC(=O)N(C)C[C@H]2Oc3ccc(NC(=O)c4ccncc4)cc3CC(=O)N([C@H](C)CO)C[C@@H]2C)cc1,3,?
C[C@H](O)C#Cc1cnc2c(c1)C(=O)N([C@@H](C)CO)C[C@@H](C)[C@H](CN(C)Cc1cccc(C(=O)O)c1)O2,3,-23[16.7 µM]
C[C@H](CO)N1C[C@H](C)[C@H](CN(C)S(=O)(=O)c2ccccc2)OCCCC[C@H](C)Oc2ccc(NS(C)(=O)=O)cc2C1=O,-3,-5[16.7 µM]
C[C@@H]1CN([C@H](C)CO)C(=O)Cc2cc(NS(=O)(=O)c3cn(C)cn3)ccc2O[C@@H]1CN(C)Cc1ccc(C(F)(F)F)cc1,9,13[16.7 µM]
COc1ccc(S(=O)(=O)Nc2ccc3c(c2)C(=O)N([C@H](C)CO)C[C@H](C)[C@@H](CN(C)C(=O)Nc2c(C)noc2C)OCCCC[C@@H](C)O3)cc1,-5,2[16.7 µM]
C[C@@H]1CN([C@H](C)CO)C(=O)c2cc(C#Cc3ccccc3F)cnc2O[C@@H]1CN(C)C,-3,-7[16.7 µM]
COc1ccc(S(=O)(=O)N(C)C[C@@H]2OCCCC[C@H](C)Oc3ccc(NS(=O)(=O)c4cccs4)cc3C(=O)N([C@H](C)CO)C[C@@H]2C)cc1,-10,-52[16.7 µM]

# Seven entries from above, with values under each structure:
# Order of results – Yeast UUG start | HIV Env fusion
- C[C@H](CO)N1C[C@H](C)[C@H](CN(C)S(=O)(=O)c2cccs2)Oc2ncc(-c3cccc(F)c3)cc2C1=O
  10 | 8[16.7 µM]
- C[C@H](CO)N1C[C@H](C)[C@@H](CN(C)C(=O)Cc2ccncc2)Oc2ncc(C#Cc3ccccc3F)cc2C1=O
  11 | 33[16.7 µM]
- C[C@@H]1CN([C@@H](C)CO)C(=O)c2cc(NC(=O)Cc3ccccc3)ccc2O[C@@H]1CN(C)Cc1ccncc1
  21 | -4[16.7 µM]
- COC(=O)C[C@H]1C[C@H]2c3cc(NS(=O)(=O)c4ccc(F)cc4)ccc3O[C@H]2[C@H](CO)O1
  2 | -5[16.7 µM]
- C[C@@H]1CCCCO[C@@H](CN(C)S(=O)(=O)c2cn(C)cn2)[C@@H](C)CN([C@@H](C)CO)C(=O)c2cc(N(C)C)ccc2O1
  26 | -8[16.7 µM]
- C[C@H](CO)N1C[C@H](C)[C@H](CN(C)S(=O)(=O)c2ccccc2F)Oc2ncc(/C=C/c3ccccc3)cc2C1=O
  -3&-2 | 71*[16.7 µM]
- CC(C)CC#Cc1ccc2c(c1)O[C@@H](CN(C)C(=O)C1CCOCC1)[C@@H](C)CN([C@@H](C)CO)S2(=O)=O
  8 | -22[16.7 µM]

# Going on with the list.
SMILES,Yeast UUG start,HIV Env fusion
Cc1ccc(S(=O)(=O)Nc2ccc3c(c2)CC(=O)N([C@H](C)CO)C[C@@H](C)[C@@H](CN(C)S(=O)(=O)c2ccc(Cl)cc2)O3)cc1,-4,-9[16.7 µM]
O=S(=O)(N[C@@H]1CC[C@@H](CCn2cc(-c3ccccn3)nn2)O[C@H]1CO)c1cccc(F)c1,4,1[16.7 µM]
C[C@H]1CCCCO[C@@H](CN(C)CC2CCCCC2)[C@@H](C)CN([C@@H](C)CO)C(=O)c2cc(NC(=O)Nc3ccc(C(F)(F)F)cc3)ccc2O1,2,39[16.7 µM]
O=C(CN1CCOCC1)N[C@@H]1CC[C@@H](CCNC(=O)C2CCCCC2)O[C@@H]1CO,-4,-11[16.7 µM]
C[C@@H]1CCCCO[C@@H](CN(C)Cc2ccc(C(F)(F)F)cc2)[C@H](C)CN([C@H](C)CO)C(=O)c2cc(NC(=O)NC3CCCCC3)ccc2O1,10,52[16.7 µM]
CNC(=O)C[C@@H]1CC[C@@H]2[C@H](COc3ccc(NC(=O)Nc4ccc(C)cc4)cc3C(=O)N2C)O1,-5,1[16.7 µM]
COc1ccc(S(=O)(=O)Nc2ccc3c(c2)C(=O)N([C@@H](C)CO)C[C@@H](C)[C@@H](CN(C)C(=O)c2ccncc2)OCCCC[C@@H](C)O3)cc1,-3,2[16.7 µM]
O=C(N[C@@H]1CC[C@@H](CCNS(=O)(=O)c2ccc(Cl)cc2)O[C@@H]1CO)c1cnccn1,-2,20[16.7 µM]
C[C@H]1CCCCO[C@H](CN(C)Cc2ccc3c(c2)OCO3)[C@@H](C)CN([C@@H](C)CO)C(=O)c2cc(NC(=O)NC3CCCCC3)ccc2O1,13,10[16.7 µM]
COc1ccc(NC(=O)N(C)C[C@H]2OCCCC[C@@H](C)Oc3ccc(NS(=O)(=O)c4ccc(C)cc4)cc3C(=O)N([C@@H](C)CO)C[C@H]2C)cc1,-2,-32[16.7 µM]
C[C@H]1CN([C@@H](C)CO)C(=O)Cc2cc(NS(=O)(=O)c3ccc(Cl)cc3)ccc2O[C@@H]1CN(C)Cc1ccc(Oc2ccccc2)cc1,2,5[16.7 µM]
CCCNC(=O)C[C@@H]1CC[C@@H]2[C@H](COc3ccc(NS(=O)(=O)c4ccccc4C)cc3C(=O)N2C)O1,4,-4[16.7 µM]
C[C@H](CO)N1C[C@H](C)[C@H](CN(C)Cc2ccc(C(F)(F)F)cc2)OCCCC[C@H](C)Oc2ccc(NC(=O)Nc3ccc4c(c3)OCO4)cc2C1=O,1,69*[16.7 µM]
